CtBP-E1A inh: inhibitors of CtBP/E1A interaction; AlphaScreen GST-E1A/His-CtBP binding, 1536-well; active compounds read low; control for the full effect not named in the record; activity change, % (no concentration beside the values); 340,000 compounds, 0.49% hits; AID 651724; in the data active means activity change below about -65%; inconclusive means about -30% to -65%; inactive means above about -30%; note: % is set by controls: 0 for no effect and ±100 for the full control effect
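Homogeneous bead-based format: GST-tagged E1A captured on glutathione donor beads, His-tagged CtBP on nickel acceptor beads; compounds precede bead addition by 2 h at 37 °C.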
ClpP mod: qHTS Assay for Activators of ClpP; Potency, µM (top dose mostly 57.5 µM), without a hit: at the top dose activity change, negative = active; purified B. subtilis ClpP, FRET peptide cleavage, 20 min; 340,000 compounds, 1.9% hits; ATP-dependent Clp protease proteolytic subunit (Bacillus subtilis (strain 168)), P80244; active = well fitted falling curve with a large enough effect; inconclusive = small, poorly fitted or top-dose-only effect; inactive = no such curve, though single readings can be large or run the other way; note: potency is the fitted concentration of half-maximal effect; the source files actives as falling curves though it sought activators and does not explain the sign; nearly all actives have a fitted effect of over 65% in size; many hits overshoot -100%
Target sequence (P80244 whole entry, looked up): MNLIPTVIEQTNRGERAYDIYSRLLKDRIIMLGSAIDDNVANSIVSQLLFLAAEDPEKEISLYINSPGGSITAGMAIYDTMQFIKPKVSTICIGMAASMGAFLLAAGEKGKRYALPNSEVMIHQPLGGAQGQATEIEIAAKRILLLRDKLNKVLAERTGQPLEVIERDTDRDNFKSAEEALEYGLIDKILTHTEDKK
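FRET quenching reversal measured ClpP activation: 10 microg/mL B. subtilis ClpP at pH 8 with the FRET-FV decapeptide, read at 430 nm after 320 nm excitation. The 20-min minus 0-min signal was scaled between DMSO/no-enzyme wells and ADEP (5.8 microM final).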
Sfp inh: inhibitors of Bacillus subtilis Sfp phosphopantetheinyl transferase. Potency, µM, inactives show max response, negative = inhibition, most hits filed as inhibitors. Biochemical Sfp PPTase activity, qHTS. 310,000 compounds, 3.5% hits. AID 1490. Q9F4F7; active = well fitted inhibition curve with a large enough effect; inconclusive = small, poorly fitted or top-dose-only effect, or another doubt; inactive = no such curve, though single readings can be large or run the other way;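 note: the enzyme is Sfp with the accession as filed and its product quenches rhodamine fluorescence; potency is the fitted concentration of half-maximal effect; 0% = enzyme reaction without inhibitor and -100% = no enzyme wells; top concentration of the series not given in the record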
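Step 1, compound plus 15 nM Sfp-PPTase, 15 min, room temperature. Step 2, add rhodamine-CoA (5 uM) and BHQ-2-YbbR (12.5 uM). Step 3, read 525/598 nm fluorescence at 0 and 30 min.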
gsp ag: activates gsp, the McCune-Albright syndrome mutation. gsp mutant cells, cAMP HTRF, 30 min; control for the full effect not named in the record. Potency, µM (top dose mostly 76.9 µM), for inactives: at the top dose activation (cAMP increase), most hits filed as activators. 340,000 compounds, 0.13% hits. AID 624287; active = well fitted activation curve with a large enough effect; inconclusive = small, poorly fitted or top-dose-only effect, or another doubt; inactive = no such curve, though single readings can be large or run the other way; cell line not stated here;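 note: phosphodiesterase inhibitor Ro 20-1724 added with compounds to block cAMP breakdown; potency is the fitted concentration of half-maximal effect; nearly all actives have a fitted effect of over 60% in size; about a fifth of the inactives were tested at one dose only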
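Cells stably selected in G418 were plated at 2000/well, grown 16-24 hr, then given compounds in DMSO with the PDE inhibitor […] (300 uM solution added) for 30 min at 37C; cAMP was read by HTRF.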
Menin-MLL FL inh: inhibitors of human menin-MLL interaction, wild-type MLL peptide. Fluorescence polarization, fluorescein-MLL peptide displacement from menin. FP activity change, % at 61.4 µM. 290,000 tested, under 10 active. AID 1766; inconclusive = falling polarisation curve, or a change in total fluorescence; inactive = total fluorescence flat and polarisation flat or rising; no compound was filed as active; the % refers to the polarisation; negative = inhibition;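 note: % of control where 0% means no effect; inhibitors lower the polarisation; unlabelled MLL peptide was the positive control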
gsp antagonist: antagonizes gsp, the McCune-Albright syndrome mutation; gsp-mutant cells, cAMP HTRF, 30 min; control for the full effect not named in the record; Potency, µM (titrated, usually from 76.9 µM), inactives show at the top dose activity change, negative = inhibition, usual class: inhibitors; 340,000 compounds, 0.4% hits; active = falling curve of any shape with a large fitted effect; inconclusive = falling curve, mostly with a smaller effect; inactive = flat or rising curve; cell line not stated here;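 note: intracellular cAMP measured with PDE inhibitor Ro 20-1724 present during compound exposure; potency is the fitted concentration of half-maximal effect; % is set by controls: 0 for no effect and ±100 for the full control effect; nearly all actives have a fitted effect of over 65% in size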
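Cells, 2000/well, grown 16–24 h in DMEM 10% FBS with 0.5 mg/ml G418, then compounds plus […] (300 uM addition stock), 30 min at 37C. cAMP read by HTRF (cAMP-d2 and anti-cAMP antibody-K in lysis buffer) after 30 min RT.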
TRPV1 potentiator: enhances activation of the human vanilloid receptor TRPV1; 320,000 compounds, 0.02% hits; TRPV1-expressing cells, Fluo-8 calcium influx, capsaicin EC20 potentiation; host cell line not named in the record; control for the full effect not named in the record; potentiation, % at 8.33 µM; active means potentiation above 80%; inconclusive means 30% to 80%; inactive means below 30%; note: 0% is about no effect
Target sequence (Q8NER1 whole entry, looked up): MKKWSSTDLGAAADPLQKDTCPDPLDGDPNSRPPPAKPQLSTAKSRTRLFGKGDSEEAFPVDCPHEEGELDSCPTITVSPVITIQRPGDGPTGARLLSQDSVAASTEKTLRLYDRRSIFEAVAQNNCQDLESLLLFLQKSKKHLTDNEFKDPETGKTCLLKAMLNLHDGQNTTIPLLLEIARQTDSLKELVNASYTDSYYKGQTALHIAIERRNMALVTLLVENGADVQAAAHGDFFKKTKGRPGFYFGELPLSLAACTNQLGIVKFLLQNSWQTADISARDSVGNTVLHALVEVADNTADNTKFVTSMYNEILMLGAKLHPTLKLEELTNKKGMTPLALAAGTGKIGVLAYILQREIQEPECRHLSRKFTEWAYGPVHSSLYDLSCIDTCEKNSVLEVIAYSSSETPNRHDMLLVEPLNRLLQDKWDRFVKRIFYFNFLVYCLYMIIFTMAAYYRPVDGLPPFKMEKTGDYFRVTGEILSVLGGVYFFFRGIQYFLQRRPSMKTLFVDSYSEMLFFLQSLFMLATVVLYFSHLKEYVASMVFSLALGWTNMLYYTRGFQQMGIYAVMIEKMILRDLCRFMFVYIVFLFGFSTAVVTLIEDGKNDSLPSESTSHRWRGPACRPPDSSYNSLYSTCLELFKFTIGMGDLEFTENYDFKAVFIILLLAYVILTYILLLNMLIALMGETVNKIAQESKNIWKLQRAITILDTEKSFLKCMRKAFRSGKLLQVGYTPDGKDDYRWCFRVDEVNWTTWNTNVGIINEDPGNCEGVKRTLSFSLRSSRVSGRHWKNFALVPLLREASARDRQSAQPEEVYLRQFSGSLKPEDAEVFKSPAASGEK
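Fluo-8 calcium influx in TRPV1-expressing cells, kinetic read (ex 480/em 520 nm). Compound added and read 3 min for agonist activity, followed by capsaicin at EC20 final and 2 min further read for enhancement.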
* hit, by the source's call; ? = inconclusive; . = no result given; & = joins results of further samples; [ ] = another dose, or the depositor's remark.

SMILES	CtBP-E1A inh	ClpP mod	Sfp inh	gsp ag	Menin-MLL FL inh	gsp antagonist	TRPV1 potentiator
O=C(COC(=O)c1nc(Cl)ccc1Cl)NC(=O)c1ccccc1	6	.	1%	8%[15.4 µM]	.	-2%	7
Cn1c(CCNC(=O)c2ccco2)nc2cc(NC(=O)c3ccccc3)ccc21	-2	-0.8%	10%	21%	.	-2%	-2
CCO[C@@H]1OC(C(=O)N2CCN(Cc3ccc4c(c3)OCO4)CC2)=C[C@H](c2coc3ccccc3c2=O)[C@H]1CCCO	0	-0.6%	-3%	.	-0.3	-23%	-35
CCn1nnc(NC(=O)c2ccc(Br)o2)n1	0	.	5%	-4%[15.4 µM]	0.5	9%	3
CCCCOc1ccc(C(=O)NCC(=O)N2CCN(Cc3ccc4c(c3)OCO4)CC2)cc1	-1	-0.4%	.	-10%[15.4 µM]	.	-11%	-3
COc1ccc(CCNS(=O)(=O)c2ccc3c(c2)NC(=O)CS3)cc1OC	1	0.4%	15%	?	.	-7%	12
COc1cccc(CN2CCC(n3nccc3NC(=O)CCCc3ccccc3)CC2)c1O	.	0.4%	21%	20%	.	-3%	-21
CCc1nnc(NC(=O)CSc2nc(N)c(NC(=O)c3ccc(OC)cc3)c(=O)[nH]2)s1	3	-1.4%	-17%	-1%[15.4 µM]	.	3%	15
O=C(CN1CCOCC1)N1N=C(c2cccs2)CC1c1cccs1 (stereo not drawn)	0	.	15%	3%[15.4 µM]	-11	-12%	1
CN(Cc1ccccc1Cl)C(=O)c1cnccc1C(F)(F)F	-1	-3.1%	8%	3%[15.4 µM]	-1.1	10%	1
COc1ccc(N2CCCn3c2nc2c3c(=O)n(Cc3ccccc3F)c(=O)n2C)cc1	.	.	5%	.	-1.0	.	3
COc1ccc(-c2noc(CN3CCC(Cc4ccccc4)CC3)n2)cc1	1	0.1%	-3%	-8%	2.1	-9%	-3
Cc1cccc(NC(=O)COC(=O)Cc2c[nH]c3ccccc23)c1C	4	-2.2%	6%	15%	6.1	2%	-11
O=C(CN1CCOCC1)Nc1nc2ccc(F)cc2s1	-5	-3.0%	12%	-8%	-0.2	-3%	21
CC(=O)Nc1ccccc1Oc1ccccc1	-18	0.9%	21%	?	3.2	0%	-2
O=c1c2c(-c3ccc([N+](=O)[O-])cc3)csc2nc2n1CCC2	-10	-4.6%	?	22µM*	1.0	10%	-2
CC(C)c1ccc(NC(=O)Cc2cn(C)c3ccccc23)cc1	-15	.	12%	14%[15.4 µM]	-1.5	3%	22
COC(=O)c1c(C)oc(C)c1S(=O)(=O)NC(C)(C)C	3	.	14%	-8%[15.4 µM]	0.3	5%	5
COc1ccc(CNC(=O)CN(C(=O)CCC(=O)Nc2ccccn2)c2cccc(C)c2C)cc1	-2	.	20%	?	1.3	6%	6
Cc1ccc(N=Cc2ccc[nH]2)c(O)c1	-26	-0.5%	-19%	-8%	6.5	1%	-6
O=C(c1ccc2snnc2c1)N1CCCC1	99	0.4%	-1%	-28%	-1.2	0%	-30
CC(C)Cn1c(CNC(=O)c2ccccc2)nc2ccccc21	0	-0.9%	-2%	2%	0.2	17%	-16
COc1ccccc1NC(=O)C1=C(C)Nc2nc(-c3ccccc3)nn2C1c1ccccn1 (stereo not drawn)	-3	0.2%	9%	-15%	-0.3	-3%	-11
CCSc1nnc([C@H](C)NC(=O)OC(C)(C)C)o1	4	-3.6%	11%	?	5.8	9%	-1
O=C(CN1C(=O)CCS(=O)(=O)c2ccccc21)Nc1ccc(Cl)cc1	-4	-2.1%	-2%	-24%	-3.8	3%	-4
CCC1NC(=S)N(C2CCCCC2)C1=O (stereo not drawn)	6	-0.7%	7%	-47%[inhibitor]	-0.2	2%	.
CCCn1nnc(NC(=O)/C=C/c2ccc(C(C)C)cc2)n1	-25	0.2%	11%	-56%[inhibitor]	3.9	-1%	.
Cc1ccc(-n2c(C)cc3c2CCCC3=O)cc1	14	0.0%	-13%	10%	0.3	-1%	4
CCCNC(=O)C12CCC(C)(c3nc4cc(C)c(C)cc4nc31)C2(C)C (stereo not drawn)	4	1.4%	10%	-3%[15.4 µM]	-4.7	-21%	-4
CC1CCN(C(=O)COC(=O)Cc2ccc(Br)cc2)CC1	0	-0.2%	6%	-22%[15.4 µM]	1.9	14%	-11
O=C(c1ccccc1)N1CCCCC(Cl)C1=O (stereo not drawn)	.	2.6%	14%	-5%	3.2	11%	-8
COc1ccc(NS(=O)(=O)c2ccc3oc(=S)[nH]c3c2)cc1	-2	0.7%	5%	?	3.0	9%	-6
Cc1cc(C(F)(F)F)nc(SCc2ccc(C(=O)O)o2)n1	-1	7.2%	35µM*	-1%	18	-15%	0
CC(C)Cc1nnc(NC(=O)CCC(=O)N2CCOCC2)s1	-17	-2.4%	16%	-12%	1.1	4%	-4
C=CCC(=O)N1CCC(n2nccc2NC(=O)c2ccc3c(c2)OCO3)CC1	10	0.2%	.	-17%	.	.	.
Cn1c(=O)c2cc3ccccc3nc2n(C)c1=O	4	.	23%	-10%[15.4 µM]	1.7	6%	-5
c1ccc(Cn2c(SCc3nc4ccccc4s3)nnc2-c2ccco2)cc1	-1	-1.1%	20µM*	0%	6.8	-3%	-15
Cc1ccc([N+](=O)[O-])cc1S(=O)(=O)N1CCNCC1	.	.	20%	-12%[15.4 µM]	-1.4	8%	1
O=C(O)C1CC=CCC1C(=O)Nc1ccc(F)c(F)c1 (stereo not drawn)	-2	-2.1%	12%	14%	-0.1	8%	-2
COc1ccc(NC(=O)Nc2sc(=S)n(C)c2C)cc1	-7	.	20µM*	11%[15.4 µM]	5.3	-5%	2
CCOc1cc(N2CCOCC2)c(OCC)cc1NC(C)C(=O)N1CCN(CC)CC1 (stereo not drawn)	-16	.	35µM*	17%[15.4 µM]	-0.5	-29%	0
O=C(CCS(=O)(=O)c1ccccc1)Nc1ncc([N+](=O)[O-])s1	-15	.	9%	4%	3.2	-11%	1
O=C1OCCN1c1ccccc1	4	.	.	-16%	.	7%	.
CCCOc1ccc(N2C(=O)CC(N(Cc3ccco3)C(C)=O)C2=O)cc1 (stereo not drawn)	8	0.5%	8%	-37%	-0.3	1%	-1
O=C(NC1(C(F)(F)F)C(=O)Nc2c1c(=O)[nH]c(=O)n2Cc1ccccc1)c1ccc(Cl)cc1 (stereo not drawn)	2	-4.2%	9%	-52%[inhibitor]	2.9	4%	-5
Cc1cnc(NC(=O)COc2ccccc2Cl)s1	3	0.2%	18%	17%	0.2	2%	-1
CCOC(=O)[C@H]1[C@H]2COc3ccc(OC)cc3[C@@H]2N2C(=O)CN(Cc3ccc(F)cc3)C(=O)[C@@]12C	-2	-2.3%	.	.	.	-4%	4
CC(NC(=O)c1cc(S(=O)(=O)N(C)C)ccc1Cl)c1ccc(-n2ccnc2)cc1 (stereo not drawn)	2	0.1%	11%	?	.	-3%	22
Cc1cccc(NC(=O)c2ccc(OCC(=O)NCc3ccccc3)cc2)c1C	3	0.0%	3%	-9%	1.7	-2%	1
C#CC(CC)(CC)NC(=O)c1cc(S(=O)(=O)N2CCCCC2)ccc1N1CCOCC1	5	-1.9%	.	22%	.	6%	-24
Cn1c(Cn2nnc3ccccc32)nnc1SCC(=O)N1c2ccccc2Sc2ccccc21	0	1.9%	?	-2%	0.7	?	3
COc1ccc(C)cc1NC(=O)CN1C(=O)C2CC=CCC2C1=O (stereo not drawn)	7	0.5%	.	-43%[inhibitor]	.	13%	-1
CC(=O)c1cc(-c2ccccc2)n(CC(=O)NC2CCCCC2)c1C	-10	-2.4%&-0.6%	23%	-51%[inhibitor]	0.1	9%	24
CSc1nc(SC)c2c3c(oc2n1)COC(C)(C)C3	5	?	-6%	-21%	-0.7	28%	-16
CN(C)C(=S)SCC(=O)NC(=O)NC(C)(C)C	-11	-2.0%	13%	23%[15.4 µM]	-0.1	-1%	-7
O=C(NCC1CCCO1)c1cc2c(s1)CS(=O)(=O)C2 (stereo not drawn)	5	-2.3%	26%	1%	-0.1	1%	-25
CCOC(=O)CSc1nc2c(cnn2-c2ccc(Cl)cc2)c(=O)[nH]1	6	0.2%	20%	-24%	0.6	14%	8
CC(=O)c1ccc(S(=O)(=O)Nc2ccc(C(=O)NCC(c3ccco3)N3CCCC3)cc2)cc1 (stereo not drawn)	-25	-1.9%	.	-21%	.	.	.
CCCCc1nc(SCC(=O)N2CCOCC2)c2c(=O)n(C)c(=O)n(C)c2n1	-3	-0.9%	8%	?	1.2	-15%	5
Cc1ccc(/C=C/C(=O)NCCCN2CCN(CCCNC(=O)/C=C/c3ccc(C)o3)CC2)o1	4	-2.7%	0%	-1%	3.2	-7%	0
Going on with the list.
SMILES	CtBP-E1A inh	ClpP mod	Sfp inh	gsp ag	Menin-MLL FL inh	gsp antagonist	TRPV1 potentiator
CCc1ccccc1NC(=O)CSc1nc2n[nH]c(C)c2c(=N)n1-c1ccc(OC)cc1	-65*	3.1%	20%	4%	-2.4	5%	21
CC1CCCCC1NC(=O)c1cncc(Br)c1 (stereo not drawn)	-1	0.6%	10%	?	0.4	4%	-13
CN1CCN(C(=O)c2ccc3c(c2)N(Cc2ccc(F)cc2)C(=O)c2ccccc2S3=O)CC1 (stereo not drawn)	-2	0.4%&-0.2%	-6%	?	0.2	0%	-24
CC(=O)NC1(C(F)(F)F)N=C2SCCN2C1=O (stereo not drawn)	10	0.0%	18%	-36%[inhibitor]	2.3	3%	-11
COc1ccc(S(=O)(=O)N2CCN(CC(=O)Nc3cc(C(F)(F)F)ccc3Cl)CC2)cc1	2	3.4%	8%	-8%	3.9	?	5

3 of these compounds, set out differently:
SMILES,CtBP-E1A inh,ClpP mod,Sfp inh,gsp ag,Menin-MLL FL inh,gsp antagonist,TRPV1 potentiator
CC(=O)c1cc(-c2ccccc2)n(CC(=O)NC2CCCCC2)c1C,-10,-2.4%&-0.6%,23%,-51%[inhibitor],0.1,9%,24
CSc1nc(SC)c2c3c(oc2n1)COC(C)(C)C3,5,?,-6%,-21%,-0.7,28%,-16
CN(C)C(=S)SCC(=O)NC(=O)NC(C)(C)C,-11,-2.0%,13%,23%[15.4 µM],-0.1,-1%,-7

Compound activity: PubChem, National Center for Advancing Translational Sciences (NCATS)
